# NPR1 antag: Natriuretic polypeptide receptor (hNpr1) antagonism - Primary qHTS; HEK293 hNpr1 GloSensor cGMP, ANP-stimulated luminescence; Potency, µM (titrated, usually from 46.3 µM), for inactives: top-dose activity change, negative = inhibition, actives largely listed as inhibitors; actives 1.6% (n = 76,000); AID 1347048, 2019; active = well fitted inhibition curve with a large enough effect; inconclusive = small, poorly fitted or top-dose-only effect; inactive = no such curve, though single readings can be large or run the other way;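 also: nearly all actives have a fitted effect of over 60% in size; nearly all hits also lower the signal before the agonist is added; a reference antagonist and vehicle were the controls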
#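 HEK293 cells stably expressing human Npr1 and cGMP GloSensor pGS-40F, loaded 2 h with 2% GloSensor reagent, given compound 30 min at room temperature. Luminescence read before and 20 min after 0.1 nM hNppA.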
# Starred values were filed as active, the others as inactive; ? = inconclusive; [ ] = another dose, or the depositor's remark. % is scaled to controls: 0 for no effect and ±100 for the full control effect; potency is read from the fitted curve at half-maximal effect.
NPR1 antag	Compound
0%	O=C(O)C1(Oc2ccccc2F)CCN(Cc2ccc(CO)o2)CC1
1%	CCn1nccc1C(=O)N1CCC2(CC1)NC(=O)N(c1ccccc1)N2
4%	COCCn1nc2n(c1=O)CCN(C(=O)CCc1c(C)noc1C)CC2
-1%[70.6 µM]	COCCCNc1cc(-c2ccc(Cl)cc2)nc2c(C)noc12
-5%	O=C(NCc1cccnc1)c1cccnc1N1CC2CC(C1)[C@H]1CCCC(=O)N1C2 (stereo partly specified)
2%[70.6 µM]	O=C1C[C@@H]2CCN(C(=O)COc3ccccc3)C[C@@H]2CCN1Cc1cccnc1
-1%[70.6 µM]	CC(=O)N1CCC(COc2ccc3c(cnn3CC[S+](C)(=O)[O-])c2)CC1
1%	COc1ccc(CN2CC(CNC(=O)Cc3ccccc3)C3(C2)CN(c2ccccc2)C3)cc1O (stereo unspecified)
?	CC1CCN(C(=O)c2cc3n(n2)CC(c2ccc(Cl)cc2)OC3)CC1 (stereo unspecified)
5%	CCc1ccc(N2CC(c3noc(-c4cc(Cl)ccc4F)n3)CC2=O)cc1 (stereo unspecified)

# 3 structures from above, arranged by heavy-atom count, descending:
NPR1 antag	Compound
1%	COc1ccc(CN2CC(CNC(=O)Cc3ccccc3)C3(C2)CN(c2ccccc2)C3)cc1O (stereo unspecified)
5%	CCc1ccc(N2CC(c3noc(-c4cc(Cl)ccc4F)n3)CC2=O)cc1 (stereo unspecified)
-1%[70.6 µM]	CC(=O)N1CCC(COc2ccc3c(cnn3CC[S+](C)(=O)[O-])c2)CC1

# 3 entries from above, with bars between the fields.
Molecule | NPR1 antag
O=C(O)C1(Oc2ccccc2F)CCN(Cc2ccc(CO)o2)CC1 | 0%
CC(=O)N1CCC(COc2ccc3c(cnn3CC[S+](C)(=O)[O-])c2)CC1 | -1%[70.6 µM]
COCCCNc1cc(-c2ccc(Cl)cc2)nc2c(C)noc12 | -1%[70.6 µM]

# Screening results deposited in PubChem by National Center for Advancing Translational Sciences (NCATS).

# An excerpt (hit frequency here may not be typical).
